Methyltransferases – Primary Screen for Target Class Profiling of Small Molecule Inhibitors of Methyltransferases | purified enzyme, MTase-Glo SAH luminescence; hits give low values | 25,000 compounds, 3.9% hits | calls only at 40 µM; active = -50% or lower on at least one of six enzymes; inconclusive = the cases between; inactive = as a rule above -30% on all six;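 further: enzymes were COMT GAMT GNMT HNMT NNMT and PNMT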
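Each enzyme was assayed with SAM and its substrate. SAH formation detected by MTase-Glo luminescence; single-point 40 uM screen[…].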
Calls only; i = inactive; ? = inconclusive; + = active, no number. On the % scale 0 is the no-effect control and ±100 the full control effect. This is a subset; rates above refer to the full screens.

The opening four entries as a preview:
SMILES | Methyltransferases
NS(=O)(=O)c1ccc(CCNc2nc3c(-c4cccc(Br)c4)nnn3c3ccccc23)cc1 | i
O=C1c2ccccc2C(=O)c2c1cccc2S(=O)(=O)Nc1ccc(Cl)cc1 | +
Cc1ccccc1NC(=O)N1CCn2c(C)ccc2C1C(C)C (centres undefined) | i
CC(C)CNC(=O)c1ccc2c(=O)n(C)c3nn(Cc4ccccc4Cl)c(=O)n3c2c1 | i

This part in full (from the top)
SMILES | Methyltransferases
NS(=O)(=O)c1ccc(CCNc2nc3c(-c4cccc(Br)c4)nnn3c3ccccc23)cc1 | i
O=C1c2ccccc2C(=O)c2c1cccc2S(=O)(=O)Nc1ccc(Cl)cc1 | +
Cc1ccccc1NC(=O)N1CCn2c(C)ccc2C1C(C)C (centres undefined) | i
CC(C)CNC(=O)c1ccc2c(=O)n(C)c3nn(Cc4ccccc4Cl)c(=O)n3c2c1 | i
COc1ccc(-c2cc3n(n2)CC(C)(C(=O)NCc2ccccc2OC)N(Cc2ccccc2Cl)C3=O)cc1 (centres undefined) | i
COc1cccc(CNc2nc3c(S(=O)(=O)c4ccc(Br)cc4)nnn3c3ccccc23)c1 | i
Cc1ccc(C#N)c(N2CCN(C3CCCC3)C(CCO)C2)n1 (centres undefined) | i
O=C(Nc1ccc2c(c1)CN(CCc1ccc(F)cc1)C(=O)CO2)c1c(F)cccc1F | i
CC1(C(=O)NCc2ccccc2)Cn2c(ccc2-c2ccco2)C(=O)N1Cc1ccccc1F (centres undefined) | i
COc1cccc(CN2C(=O)CCCCC2C(=O)NCCc2c[nH]c3ccc(OC)cc23)c1 (centres undefined) | i
CCNC(=O)N1CC[C@H]2CC(=O)N(Cc3cccnc3)CC[C@H]2C1 | i
Cn1c(=O)c2ccc(C(=O)NC3CCCCC3)cc2n2c(=O)n(CC(=O)c3cccc(Cl)c3)nc12 | i
CC1(C(=O)NC2CCCCC2)Cn2nc(-c3ccco3)cc2C(=O)N1CCCc1ccccc1 (centres undefined) | i
CCCCNC(=O)Cn1ccc2cc(S(=O)(=O)N3CCCCC3)ccc21 | i
CC1CCCCC1NC(=O)C1(C)Cn2c(cc3sccc32)C(=O)N1Cc1ccccc1 (centres undefined) | i
Cc1c(C(=O)Nc2cccc(-c3nc4ccccc4s3)c2)oc2ccc(F)cc12 | ?
Cn1ccnc1C(=O)N1C[C@@H](COCC2CC2)[C@H](c2ccncc2)C1 | i
COC[C@H]1C[C@@H](NCc2cccc3c2OCO3)[C@H](O)[C@@H]1O | i
CCCN1C(=O)c2cc(C(=O)NCc3ccccn3)nn2CC1(C)C(=O)NC1CCCC1 (centres undefined) | i
COc1ccc(OC)c(S(=O)(=O)N2CCCOCCNC(=O)[C@@H]3CCCC[C@@H]32)c1 | i
Fc1cccc(CN(C2=NCCN2)c2c(Cl)cccc2Cl)c1 | ?
CC1(C(=O)NCc2ccc(Cl)cc2)Cn2c(ccc2-c2ccco2)C(=O)N1CCC1=CCCCC1 (centres undefined) | i
COc1cc2c(cc1OCCCN1CCCC1)N=C(N)C21CCC1 | ?
Cc1ccc(C(=O)Cn2nc3n(CCc4ccccc4)c(=O)c4ccccc4n3c2=O)cc1 | i
CCC(C)NC(=O)c1ccc2c(=O)n(CC(C)C)c3nnc(SCC(=O)NC(C)(C)C)n3c2c1 (centres undefined) | i
COCCN1C(=O)c2cc3sccc3n2CC1(C)C(=O)NC1CCCCCC1 (centres undefined) | i
COc1ccc(-c2cnc3[nH]cc(CC(=O)Nc4ccc(C(F)(F)F)cc4)c3c2)cc1 | i
CN(CCc1ccccn1)C(=O)c1ccc2c(c1)[nH]c(=O)n2C1CCC(O)CC1 (centres undefined) | i
Cc1ccc(NC(=O)c2ncn3c2C(=O)N(C2CC2)C(C)(C(=O)NC2CCCC2)C3)c(Cl)c1 (centres undefined) | i
CCc1ccc(CN2C(=O)c3ccc(-c4ccccc4)n3CC2(C)C(=O)NC2CCCCC2)cc1 (centres undefined) | i
Cc1cccc(-c2nnn3c2nc(NCc2ccc4c(c2)OCO4)c2ccccc23)c1 | i
CC(C)Cn1c(=O)c2ccccc2n2c(CCC(=O)NCc3ccc4c(c3)OCO4)nnc12 | i

Grouped by structure: those above with an NH in an aromatic ring
SMILES | Methyltransferases
COc1cccc(CN2C(=O)CCCCC2C(=O)NCCc2c[nH]c3ccc(OC)cc23)c1 (centres undefined) | i
COc1ccc(-c2cnc3[nH]cc(CC(=O)Nc4ccc(C(F)(F)F)cc4)c3c2)cc1 | i
CN(CCc1ccccn1)C(=O)c1ccc2c(c1)[nH]c(=O)n2C1CCC(O)CC1 (centres undefined) | i

(list continues)
SMILES | Methyltransferases
CCN1C(=O)c2cc3ccccc3n2CC1(C)C(=O)NCC(=O)NCc1cccc(C)c1 (centres undefined) | i
COc1ccccc1CNC(=O)C1(C)Cn2nc(-c3ccccc3)cc2C(=O)N1Cc1ccccc1C (centres undefined) | i
COc1ccc(CN2CCN(c3nc4ccccc4o3)CC2CCO)c(F)c1 (centres undefined) | i
CC1(C(=O)O)CCCC2(C)C3CC4C5CC3(CCC12)CC45C (centres undefined) | ?
CCN1c2cc(C(=O)Nc3cccc(F)c3)ccc2C(=O)N2CCCC21 (centres undefined) | i
O=C(Nc1cccc(F)c1)N1Cc2[nH]cnc2C[C@H]1c1nc(-c2ccncc2)no1 | i
CCCn1c(=O)c2ccc(C(=O)NC(C)CC)cc2n2c(=O)n(Cc3ccc(C)cc3)nc12 (centres undefined) | i
CC(=O)NCCCC(=O)N1CCOC2(CCN(C(=O)NC(C)C)CC2)C1 | i
CC1(C(=O)NC2CCCCC2)Cn2c(cc3sccc32)C(=O)N1CCN1CCCCCC1 (centres undefined) | i
COC(=O)c1ncn2c1C(=O)N(Cc1ccc(OC(C)C)cc1)C(C)(C(=O)NCc1ccccc1)C2 (centres undefined) | i
CC(C)(C)n1nc(Cc2cccc([N+](=O)[O-])c2)c2c(N)ncnc21 | ?
COc1ccc(OC)c2c1cc1n2CC(C)(C(=O)NC2CCCCC2C)N(Cc2ccccn2)C1=O (centres undefined) | i
Cc1noc(-c2ccncc2)c1C(=O)NCCCCc1ccccc1 | i
O=C(O)c1cc2cc(Cc3cccnc3)ccc2o1 | i
CCCN1CCC(N2C[C@H]3OC(=O)N(CCc4cccc(Cl)c4)[C@H]3C2)CC1 | i
C=C(C)C(C)C1OC23CC4(CO2)C(CCC2C5(C)CCC(OC6OCC(O)C(OC7OC(CO)C(O)C(OC8OCC(O)C(O)C8O)C7O)C6OC6OC(CO)C(O)C6O)C(C)(C)C5CCC24C)C3C(C)(O)C1OC(C)=O (centres undefined) | i
COC(=O)c1ncn2c1C(=O)N(c1cc(C)ccc1C)C(C)(C(=O)NCCCOC(C)C)C2 (centres undefined) | i
Cn1c(=O)c2ccc(C(=O)NC3CCCC3)cc2n2c(SCC(=O)Nc3ccc(Cl)cc3)nnc12 | i
CCCn1c(=O)c2cc(F)ccc2n2c(SCC(=O)N3CCN(c4ccc(F)cc4)CC3)nnc12 | i
CCCCCCCCn1cc(CN(CC)CC)c2cc(-c3cnc(N)nc3)ccc21 | ?
Cc1ccccc1CN1CC(=O)N(Cc2ccc(Cl)cc2)c2ccccc2S1(=O)=O | i
Cc1cc(Cl)ccc1N1C(=O)CSc2c(c3ccccc3n2C)C1C(=O)NCc1ccccc1 (centres undefined) | i
Cc1ccccc1C(=O)N1CCC(N2CCCNC2=O)CC1 | i
Cc1ccc(Cn2nc3n(CCC(C)C)c(=O)c4ccc(C(=O)NCC(C)C)cc4n3c2=O)cc1 | i
CCCn1c(=O)c2ccc(C(=O)NCC(C)C)cc2n2c(=O)n(CC(=O)c3ccc(Cl)cc3)nc12 | i
CC(C)Cn1c(=O)c2sccc2n2c(CCC(=O)NCc3ccncc3)nnc12 | i
CCC(C)NC(=O)c1ccc2c(=O)n(C)c3nn(CC(=O)c4ccc(C)cc4)c(=O)n3c2c1 (centres undefined) | i
CCCN1CC2(CCN(C)CC2)CC1C(=O)N(C)Cc1nnc(C)o1 (centres undefined) | i
CCCn1c(=O)c2ccccc2n2c(=O)n(CC(=O)Nc3ccc(OC)c(OC)c3)nc12 | i
COC1=CC(=O)CC(C)C12Oc1cc(OC)cc(O)c1C2=O (centres undefined) | i
CC(C)CCn1c(=O)c2ccccc2n2c(SCC(=O)NC3CCCCC3)nnc12 | i
Cc1ccc(NS(=O)(=O)c2cc3c(cc2Cl)n(C)c(=O)n3C)cc1C | i

Further results follow.
| Compound | Methyltransferases |
| --- | --- |
| CC(C)Cn1c(=O)c2ccc(C(=O)NC(C)C)cc2n2c(SCc3ccccc3Cl)nnc12 | i |
| COCCC1(NC(=O)c2ccccc2)CCN(Cc2ccc(F)cc2F)CC1 | i |
| CCOc1ccc(N(CC)C(=O)c2ccc3c(c2)N(S(C)(=O)=O)CC3)cc1 | i |
| CC(C)NC(=O)c1ccc2c(=O)n(C3CC3)c3nn(CC(=O)Nc4cc(F)ccc4F)c(=O)n3c2c1 | i |
| CCC(C(=O)NCc1c(C)ncc2c1CCNC2)n1cccn1 (centres undefined) | i |
| Cc1ccc(NC(=O)N2CCCN(CCn3nc4n(c3=O)CCCC4)CC2)cc1F | i |
| Cc1ccc(NC(=O)c2cc3n(n2)CC(C)(C(=O)NC2CCCCCC2)N(C)C3=O)cc1 (centres undefined) | i |
| C/C(=C/CO)CC[C@@H]1[C@@](C)(O)CCC2C(C)(C)CCC[C@]21C (some centres undefined) | i |
| CCOc1ccc(CNS(=O)(=O)c2ccc3[nH]c4c(c3c2)CCCC4)cc1OC | i |
| CCCn1c(=O)c2ccc(C(=O)NC(C)CC)cc2n2c(=O)n(C)nc12 (centres undefined) | i |
| O=C(O)c1cccc(-c2ccc(-c3cn(C(=O)N4CCCCC4Cc4ccccc4)nn3)cc2)c1 (centres undefined) | ? |
| CN1C(=O)c2cc3ccccc3n2CC1(C)C(=O)NCC(=O)NCc1ccccc1Cl (centres undefined) | i |
| CCC(C)NC(=O)c1ccc2c(=O)n(C(C)C)c3nn(CC(=O)NC4CCCCC4)c(=O)n3c2c1 (centres undefined) | i |
| COCCCNC(=O)c1cc2n(n1)CC(C)(C(=O)NC1CCCC1)N(C)C2=O (centres undefined) | i |
| CCCn1c(=O)c2ccccc2n2c(=O)n(Cc3ccccc3Cl)nc12 | i |
| COc1cc(-c2nnc3n(CCc4ccccc4)c(=O)c4ccccc4n23)ccc1O | i |
| C[C@H]1CC(=O)Nc2cccc(-c3cnn(C(C)(C)C)c3)c2N1 | i |
| Cc1c(OCc2cccc(-c3ccc(C(=O)O)cc3)c2)cc2c(c1C)C(=O)C(C1CCCC1)C2 (centres undefined) | + |
| CCOC(=O)c1cc(Nc2ccc(C(C)=O)cc2)c2cc(Cl)ccc2n1 | i |
| O=c1oc(Cl)c(Cl)c2ccccc12 | i |
| CC1(C(=O)NC2CCCC2)Cn2c(ccc2-c2ccco2)C(=O)N1c1ccc(F)cc1 (centres undefined) | i |
| COC1OC(O)C2(CCC3(O2)C(C)CC2OC(=O)C4(C)CCCC3(C)C24)C1O (centres undefined) | i |
| Cc1c(C(=O)NCc2cccnc2)nn(-c2ccc(Cl)cc2Cl)c1-c1ccc(Cl)cc1 | ? |
| CCc1nnc2ccc(NC3CC3)nn12 | i |

Reformatted as labelled records: part of the list above
Cc1ccccc1C(=O)N1CCC(N2CCCNC2=O)CC1
  Methyltransferases = i

Cc1ccc(Cn2nc3n(CCC(C)C)c(=O)c4ccc(C(=O)NCC(C)C)cc4n3c2=O)cc1
  Methyltransferases = i

CCCn1c(=O)c2ccc(C(=O)NCC(C)C)cc2n2c(=O)n(CC(=O)c3ccc(Cl)cc3)nc12
  Methyltransferases = i

Remaining list, next part
| Compound | Methyltransferases |
| --- | --- |
| CCN(CCCNC(=O)CCCc1nnc2n3nc(C)nc3c3ccccc3n12)c1ccccc1 | i |
| COc1c(C)c(OCC=C(C)C)cc2c1C(=O)NC2=O | i |
| CSc1cccc(N2C(=O)CSc3c(c4ccccc4n3C)C2C(=O)NCc2ccccc2)c1 (centres undefined) | i |
| CC(=O)NCc1cn[nH]c1-c1ccc(Cl)cc1 | i |
| CN1CCCC1c1nc(C2CN(C(=O)c3ccsc3)C2)no1 (centres undefined) | i |
| CCOc1ccccc1CNC(=O)C(C)n1ccc2cc(S(=O)(=O)N3CCCCC3)ccc21 (centres undefined) | i |
| COC(=O)CCC1(C)C(C(C)(C)O)C(O)CC2(C)Oc3c(C)c4c(c(OC)c3CC21)C(=O)OC4 (centres undefined) | i |
| Cc1ccc(Cn2c(=O)c3ccccc3n3c(=O)n(CC(=O)Nc4cccc(Cl)c4)nc23)cc1 | i |
| Cc1nn2c(c1-c1ccccc1C(C)C)N(C(=O)c1cnccn1)CCC2 | i |
| C[C@]12CCC(=O)C=C1[C@@H](O)C[C@@H]1[C@@H]2[C@@H](O)C[C@@]2(C)[C@H]1CC[C@]2(O)C(=O)CO | i |
| O=[S+]([O-])(c1cccs1)N1CCN(c2nc3ncccc3o2)CC1 | i |
| O=C(c1ccc(Br)cc1)N1CCN(c2cc(-c3ccccc3)[nH]n2)CC1 | i |
| CCN(CC)CCCN1C(=O)c2ccc(-c3ccco3)n2CC1(C)C(=O)NC1CCCCC1 (centres undefined) | i |
| C=C1[C@@H](C)[C@H]2[C@H](Cc3c[nH]c4ccccc34)NC(=O)[C@]23C(=O)/C=C/C(=O)[C@H](O)/C(C)=C\[C@@H](C)C/C=C/[C@H]3[C@@H]1O | i |
| O=C(Nc1cc(C(F)(F)F)cc(C(F)(F)F)c1)c1cc(Cl)ccc1O | i |
| O=C(O)[C@H]1C[C@H](C(=O)NCc2ccncc2)CN(C(=O)C2CCCC2)C1 | i |
| C/C(=C\Cc1c(O)c(Cl)c(C)c(C=O)c1O)CC/C=C(\C)[C@H]1CC(=O)C(C)(C)O1 | i |
| Cn1ccnc1CN1CCOc2cc([S+](=O)([O-])Nc3ccccc3)ccc2C1 | i |
| Cc1oc2ccn(Cc3cccc(F)c3)c(=O)c2c1C(=O)NC1CCCC1 | ? |
| CN(C)[C@@H]1C[C@H](CO)[C@@H](O)[C@H]1O | i |
| O=C(Nc1nc2ccc([N+](=O)[O-])cc2s1)C1CCCCC1 | i |

Bioassay records deposited in PubChem by National Center for Advancing Translational Sciences (NCATS).
